Source: PubChem
PINK1 expr mod = PINK1 expression modulation; PINK1 immunofluorescence, high-content cytometry, 24 h; Potency, µM (series often up to 76.6 µM), for the others: at the top dose activation (PINK1 increase), most hits filed as activators; actives 0.2% (n = 410,000); AID 624263; active = well fitted activation curve with a large enough effect; inconclusive = small, poorly fitted or top-dose-only effect; inactive = flat fitted curve, though single readings scatter; cell line not stated here;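 further: potency means the concentration at half of the fitted maximal effect; % of control where 0% means no effect; nearly all actives have a fitted effect of over 65% in size; a mitochondrial uncoupler was the plate control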
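Cells are seeded, rested 12 hours, then given compound at five concentrations or DMSO for 24 hours. After fixation, blocking and antibody staining, PINK1 amount and mitochondrial localization are scored; CCCP serves as control.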
TRPML1 ag = agonists of human TRPML1 channel; TRPML1-expressing cells, Ca2+ dye fluorescence, FDSS; host cell line not named in the record; reference of the full effect not given here; activation, % (test concentration not listed); actives 0.12% (n = 410,000); AID 624414; in the data active = activation above about 50%; inconclusive = about 30% to 50%; inactive = below about 30%; further: 0% is about no effect; the text of the record puts the active cut at 80%
Target sequence (Q9GZU1 whole entry, looked up): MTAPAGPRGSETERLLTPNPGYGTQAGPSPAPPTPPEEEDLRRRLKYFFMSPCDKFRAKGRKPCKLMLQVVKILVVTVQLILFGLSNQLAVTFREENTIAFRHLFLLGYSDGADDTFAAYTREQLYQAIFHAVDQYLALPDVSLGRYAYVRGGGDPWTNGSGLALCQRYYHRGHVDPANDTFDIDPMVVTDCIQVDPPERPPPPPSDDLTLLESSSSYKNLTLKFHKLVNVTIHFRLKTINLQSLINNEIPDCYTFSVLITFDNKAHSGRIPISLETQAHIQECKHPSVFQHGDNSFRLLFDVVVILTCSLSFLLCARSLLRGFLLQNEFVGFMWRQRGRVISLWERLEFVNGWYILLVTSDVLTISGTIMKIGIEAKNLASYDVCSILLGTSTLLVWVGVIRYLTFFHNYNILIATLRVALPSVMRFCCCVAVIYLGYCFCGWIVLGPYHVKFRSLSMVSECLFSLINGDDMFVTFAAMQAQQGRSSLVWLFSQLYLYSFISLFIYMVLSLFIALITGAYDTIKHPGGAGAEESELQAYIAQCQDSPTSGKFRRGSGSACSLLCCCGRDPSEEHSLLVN
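Tetracycline-induced TRPML1-DL cells are seeded and incubated overnight before loading with a no-wash Ca2+ dye and quencher. Agonist activity is taken from the 110 s fluorescence read following compound pin-transfer on an FDSS, before EC80 54-4 challenge.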
Sfp inh = inhibitors of Bacillus subtilis Sfp phosphopantetheinyl transferase; AID 1490; Potency, µM, without a hit: max response, negative = inhibition, hits mostly inhibitors; actives 3.5% (n = 310,000); Biochemical Sfp PPTase activity, qHTS; active means well fitted inhibition curve with a large enough effect; inconclusive means small, poorly fitted or top-dose-only effect, or another doubt; inactive means no such curve, though single readings can be large or run the other way;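 further: the enzyme is Sfp with the accession as filed and its product quenches rhodamine fluorescence; potency means the concentration at half of the fitted maximal effect; 0% = enzyme reaction without inhibitor and -100% = no enzyme wells; top concentration of the series not given in the record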
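Step 1, compound plus 15 nM Sfp-PPTase, 15 min, room temperature. Step 2, add rhodamine-CoA (5 uM) and BHQ-2-YbbR (12.5 uM). Step 3, read 525/598 nm fluorescence at 0 and 30 min.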
Menin MLL FP FL = displaces fluorescein MLL peptide from human menin; Fluorescence polarization, fluorescein-MLL peptide displacement from menin; FP activity change, % at 61.4 µM; 290,000 tested, under 10 active; AID 1766; inconclusive = falling polarisation curve, or a change in total fluorescence; inactive = total fluorescence flat and polarisation flat or rising; no compound was filed as active; the % refers to the polarisation; negative = inhibition;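 further: % of control where 0% means no effect; inhibitors lower the polarisation; unlabelled MLL peptide was the positive control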
TRPML1 inh = inhibitors of human TRPML1 channel | Q9GZU1 | TRPML1-inducible cells, Ca2+ dye fluorescence, FDSS; stronger effect = lower value; inhibition of EC80 agonist-evoked calcium signal | activity change, negative = inhibition, % (concentration not given with the values) | actives 0.02% (n = 390,000) | AID 624415; in the data active means activity change below about -50%; inconclusive means about -30% to -50%; inactive means above about -30%;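 further: stimulus is agonist 54-4 at its EC80 concentration; on the % scale 0 is the no-effect control and ±100 the full control effect; compound concentration not given in the record; the text of the record puts the active cut at -80%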
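Calcium fluorescence in TRPML1-DL cells induced overnight with Tet: a 110 s read after compound pin addition, then a 110 s antagonist read after challenge with 54-4 at 4 uM final (EC80).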
ClpP mod = qHTS Assay for Activators of ClpP | ATP-dependent Clp protease proteolytic subunit (Bacillus subtilis (strain 168)), P80244 | purified B. subtilis ClpP, FRET peptide cleavage, 20 min | Potency, µM (doses to about 57.5 µM), for inactives: at the top dose activity change, negative = active | actives 1.9% (n = 340,000) | AID 651965, 2013; active = well fitted falling curve with a large enough effect; inconclusive = small, poorly fitted or top-dose-only effect; inactive = no such curve, though single readings can be large or run the other way; further: potency means the concentration at half of the fitted maximal effect; the source files actives as falling curves though it sought activators and does not explain the sign; nearly all actives have a fitted effect of over 65% in size; many hits overshoot -100%
Target sequence (P80244 whole entry, looked up): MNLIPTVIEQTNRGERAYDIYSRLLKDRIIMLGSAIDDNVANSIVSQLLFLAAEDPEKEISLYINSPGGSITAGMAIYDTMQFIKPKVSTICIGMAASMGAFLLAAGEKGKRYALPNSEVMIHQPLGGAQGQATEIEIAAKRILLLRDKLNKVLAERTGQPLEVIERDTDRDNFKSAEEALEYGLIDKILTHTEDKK
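Purified B. subtilis ClpP, 10 microg/mL final in Tris/HCl pH8 with KCl, BSA, glycerol and Tween-20, cleaved an Abz/nitrotyrosine-quenched decapeptide. Fluorescence (ex 320, em 430) was read at 0 and 20 min at room temperature. Delta was normalized to 5.8 microM ADEP and DMSO/no-enzyme controls.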
TRPV1 potentiator = potentiators of human vanilloid receptor 1 (TRPV1); Q8NER1; TRPV1-expressing cells, Fluo-8 calcium influx, capsaicin EC20 potentiation; host cell line not named in the record; control for the full effect not named in the record; potentiation, % at 8.33 µM; actives 0.02% (n = 320,000); active means potentiation above 80%; inconclusive means 30% to 80%; inactive means below 30%; further: 0% is about no effect
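Fluo-8 calcium influx in TRPV1-expressing cells, kinetic read (ex 480/em 520 nm). Compound added and read 3 min for agonist activity, followed by capsaicin at EC20 final and 2 min further read for enhancement.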
The depositor's hits bear a star; ? = inconclusive; . = not tested or not shown; & = joins results of further samples; [ ] = another dose, or the depositor's remark. Rows are unselected. About 4.4% of those tested had a hit in this group.

Order of values: TRPV1 potentiator | PINK1 expr mod | TRPML1 ag | ClpP mod | Sfp inh | Menin MLL FP FL | TRPML1 inh
> Cc1ccc(NS(=O)(=O)c2cccc(C(=O)NNC(=O)c3cccn3C)c2)c(C)c1
    -15 | 3.7% | 0.9 | -2.5% | 11% | . | 19
> C[C@@H]1CN([C@@H](C)CO)C(=O)c2c(c3ccccc3n2C)-c2ccccc2CO[C@H]1CN(C)S(=O)(=O)c1ccc(C(F)(F)F)cc1
    . | 1.1% | -0.2 | -7.3% | . | . | 3
> CN(CC(=O)Nc1cccc(F)c1)C(=O)CC1CCCC1
    5 | -5.4% | 1.0 | -3.0% | . | . | -8
> Cc1ccc(CN2C3CCCC2CC(NC(=O)c2ccc(C)cc2)C3)cc1 (configuration not stated)
    2 | -0.2% | 0.2 | -2.0% | 9% | 1.3 | -4
> CCOc1cc(C=C(C(=O)OC)C(=O)OC)ccc1OCc1ccc([N+](=O)[O-])cc1
    11 | -1.7% | 1.3 | 12% | 5% | 3.6 | -4
> Cc1nc(SCC(=O)Nc2ccc(Br)cc2)[nH]c(=O)c1Cc1ccccc1
    . | -1.1% | 2.5 | -1.8% | . | . | 5
> O=C(O)CC[C@@H](C(=O)O)N1C(=O)c2ccccc2C1=O
    -15 | 1.2% | 0.3 | -0.2% | 3% | 0.1&-0.1 | -4
> O=C(/C=C/c1ccco1)OCC(=O)c1cccc([N+](=O)[O-])c1
    19 | 0.4% | 0.4 | . | 1% | -5.2 | 2
> O=C(OCc1cc2ccccc2[nH]c1=O)C1CCCCC1
    -2 | -1.5% | 1.3 | -11% | 4% | 3.0 | 6
> O=C(c1ccco1)N(Cc1ccc([N+](=O)[O-])cc1)c1ccc(Cl)cc1
    -11 | 0.3% | 1.7 | -3.3% | -5% | -0.7 | 40
> COc1cc(OC)c(OC)cc1/C=C/c1cc[n+](C)c2ccccc12
    . | 6.4% | -0.8 | -4.5% | . | . | .
> Cc1cccc(OCC(=O)Nc2cccc(-c3nnc(-c4ccccc4)o3)c2)c1C
    3 | 16%[38.3 µM] | 1.3 | 14% | 14% | 1.9 | 17
> CN1C(=O)C(=O)/C(=C(/O)c2ccccc2)C1c1ccc(Br)cc1 (configuration not stated)
    -13 | 0.1% | . | 0.6% | 15% | -1.6 | .
> O=C(Cc1cccc(NC(=O)C2CCCN(C(=O)C3CC3)C2)c1)Nc1ccc(C(=O)N2CCOCC2)cc1 (configuration not stated)
    . | 0.2% | 0.8 | -1.3% | . | . | 3
> CCCCN1C[C@H](CO)Oc2cccc(F)c2S1(=O)=O
    . | -1.0% | -0.2 | -2.1% | . | . | 21
> CCCCc1ccc(NC(=O)Cn2cnc3c2c(=O)n(C)c(=O)n3C)cc1
    . | -1.2% | -0.1 | -5.9% | . | . | 19
> COc1cccc(NC(=O)CSc2nc3c([nH]c4ccccc43)c(=O)n2-c2ccccc2)c1
    . | 2.4% | 2.4 | -20% | . | . | -20
> COc1ccc(/C=N/NC(=O)c2cccc(NC(=O)c3ccccc3Cl)c2)cc1OC
    26 | 21% | 2.8 | . | 25% | -3.7 | 0
> COc1ccc(S(=O)(=O)NC(=O)C2(C)CCN2C(=O)C2(c3ccc(Cl)cc3)CCC2)cc1 (configuration not stated)
    . | -0.8% | -1.0 | 0.8% | . | . | .
> CC1CN(S(=O)(=O)c2ccc(C(=O)Nc3ccc(S(=O)(=O)N4CCOCC4)cc3)cc2)CC(C)O1 (configuration not stated)
    9 | 1.1% | 1.3 | 8.4% | 11% | . | 19
> CCN(C[C@H]1N[C@@](Cc2ccccc2)(C(=O)OC)[C@H]2C(=O)N(C)C(=O)[C@@H]12)C(=O)C1CCCCC1
    . | -0.8% | 1.9 | -3.9% | . | . | 2
> CC1CCN(C(=S)NC(=O)c2cccc([N+](=O)[O-])c2)CC1
    27 | -0.7% | -0.7 | 0.9% | 11% | . | 4
> Cc1ccc(CNC(=O)C2CCCN(S(=O)(=O)c3cccc4nonc34)C2)cc1 (configuration not stated)
    ? | 3.4% | 1.4 | . | 1% | 8.6 | -10
> CC(C)(CO)N1CCN(C(=S)Nc2ccccc2)CC1
    -9 | 0.7% | -0.5 | 2.1% | -8% | -1.0 | -5
> Cc1ccc(Cn2cc(S(=O)(=O)c3cccc(Cl)c3)c(=O)c3cc(F)c(N4CCCCC4)cc32)cc1
    . | -10% | 0.0 | -3.8% | . | . | -13
> COc1ccccc1C(=O)NC(CCSC)C(=O)NCc1ccccn1 (configuration not stated)
    -8 | 0.2% | 0.1 | -2.7% | . | . | -18
> CCC(Oc1ccccc1)C(=O)Nc1ccc(-c2nnc(-c3ccco3)o2)cc1 (configuration not stated)
    15 | -2.4% | 3.5 | 0.5% | -15% | 0.4 | 11
> C(=Nc1cccnc1)c1ccnc2ccccc12
    . | 0.9% | -0.2 | 4.5% | . | . | .
> COc1ccc(S(=O)(=O)N2CCc3ccccc32)cc1C(=O)Nc1cccnc1
    -3 | 0.4% | -0.4 | . | -1% | 1.0 | -4
> CSc1ccccc1OCc1cc(C(=O)N2CCC(Oc3cccnc3)CC2)no1
    -25 | . | . | . | -4% | 1.3 | .

Three structures already listed, arranged by molecular weight, smallest number first.
Order of values: TRPV1 potentiator | PINK1 expr mod | TRPML1 ag | ClpP mod | Sfp inh | Menin MLL FP FL | TRPML1 inh
> COc1ccc(/C=N/NC(=O)c2cccc(NC(=O)c3ccccc3Cl)c2)cc1OC
    26 | 21% | 2.8 | . | 25% | -3.7 | 0
> COc1ccc(S(=O)(=O)NC(=O)C2(C)CCN2C(=O)C2(c3ccc(Cl)cc3)CCC2)cc1 (configuration not stated)
    . | -0.8% | -1.0 | 0.8% | . | . | .
> Cc1ccc(Cn2cc(S(=O)(=O)c3cccc(Cl)c3)c(=O)c3cc(F)c(N4CCCCC4)cc32)cc1
    . | -10% | 0.0 | -3.8% | . | . | -13

Remaining list, next part
Order of values: TRPV1 potentiator | PINK1 expr mod | TRPML1 ag | ClpP mod | Sfp inh | Menin MLL FP FL | TRPML1 inh
> CCOC(=O)c1nc(Nc2ccc(C(=O)OC(C)C)cc2)c2ccccc2n1
    . | 4.6% | 1.5 | 35% | . | . | -21
> Cc1cc(/C=C(\C#N)C(=O)Nc2ccccc2)c(C)n1-c1cccnc1
    -7 | 0.8% | 2.1 | . | -6% | 2.0 | 0
> Cc1cc(C(=O)CCC(=O)NNC(=O)c2ccccc2O)c(C)s1
    ? | 0.9% | -0.1 | ? | . | . | -1
> CCCCN(C)C(=O)c1ccc(Nc2nc(C(N)Cc3ccccc3)cs2)nc1 (configuration not stated)
    . | 0.6% | 1.0 | -14% | . | . | .
> Cn1c(N)c(S(=O)(=O)N2CCN(c3ccccc3F)CC2)c(=O)n(C)c1=O
    -11 | 0.1% | -0.1 | -4.2% | 15% | -5.3 | 2
> O=C(NN=Cc1ccc(O)cc1)C(=O)NN=Cc1ccc(O)cc1
    . | 2.7% | -0.9 | . | . | . | -5
> O=C(CNc1cccc(S(=O)(=O)N2CCCC2)c1)Nc1ccc(F)cc1F
    2 | 1.9% | -0.9 | -1.8% | . | . | -12
> COc1ccc(-c2coc3c(C(=O)NCc4ccc(F)c(F)c4)cccc23)c(C)c1
    . | 2.2% | 2.0 | ? | . | . | .
> COc1ccc(S(=O)(=O)N2CCCCCC2)cc1C(=O)N(C)Cc1cccc(OC)c1OC
    -4 | 2.3% | -0.1 | -3.5% | . | . | 19
> CC(=O)N1CCc2cc(Br)cc(S(=O)(=O)CCC(=O)N3CCN(c4ccccn4)CC3)c21
    -2 | -0.2% | -0.3 | . | -4% | -2.1 | -20
> O=C(CCS(=O)(=O)c1ccccc1)N(Cc1cccnc1)c1nc2c(F)cccc2s1
    . | 1.3% | -0.1 | 1.0% | . | . | 7
> CCn1nc(NS(=O)(=O)c2ccc(NC(C)=O)cc2)c2cc3ccccc3nc21
    -13 | 0.7% | -0.2 | 0.7% | 23% | . | -3
> CS(=O)(=O)NCc1csc(-c2ccccc2)n1
    14 | 18% | 1.2 | -4.9% | 11% | 0.5 | 1
> COc1cccc(NC(=O)CNC(=O)Cn2cnc3sc(C)c(C)c3c2=O)c1
    ? | 2.1% | -0.7 | -2.7% | 1% | 0.1 | -3
> COc1ccc(Nc2nc(-c3sc(C)nc3C)cs2)cc1
    -6 | 4.2% | 0.4 | -5.3% | -18% | -2.3 | -4
> CC1(C)Cc2nc3sc4c(=O)n(CC(N)=O)cnc4c3cc2CO1
    4 | 0.2% | -1.0 | -28% | 12% | -2.5 | 57
> O=C(Nc1ccc2snnc2c1)N1CCOCC1
    -21 | 0.3% | -0.5 | -13% | -11% | 1.6 | 8
> CN1CCN(c2nc3c(c(=O)[nH]c(=O)n3C)n2CCCSc2nnnn2-c2ccccc2)CC1
    1 | 0.7% | -1.1 | -3.2% | 12% | -4.5 | 20
> COc1cc(C2C(C#N)=C(N)Oc3c2ccc2ccccc32)ccc1OCC(=O)Nc1ccccc1C (configuration not stated)
    26 | -0.9% | 0.2 | -3.2% | 14% | 4.1 | 17
> Cc1ccc(C2=Nc3ccc(Br)cc3C(c3ccncc3)=NN2)cc1
    -1 | -0.1% | 0.5 | . | 8% | -1.4 | 5
> O=C(Nc1ccc(C(=O)N2CCCC(CO)C2)cc1)c1ccc(Br)o1 (configuration not stated)
    . | 0.3% | -0.4 | -0.8% | . | . | -8
> O=C(Nc1cccc(S(=O)(=O)N2CCCC2)c1)c1ccc2c(=O)n3c(nc2c1)CCCCC3
    -9 | 5.5% | -0.2 | 1.4% | 16% | -1.8 | -3
> O=C(Nc1ccccc1)c1cccc(N2CCCS2(=O)=O)c1
    . | 2.1% | -0.3 | 0.6% | . | . | 15
> CCOc1ccc(C(=O)Nc2ccc(-c3nc4cc(C(C)C)ccc4o3)cc2)cc1Cl
    . | 7.8% | 0.3 | -25% | . | . | -10
> CCC(=O)NC1OC(CO)C(O)C(O)C1O (configuration not stated)
    2 | 0.5% | 3.0 | 0.1% | 13% | -1.1 | -20
> O=C(CCN1C(=O)c2ccccc2C1=O)N1CCOCC1
    3 | -0.8% | -0.5 | -1.3% | 31%[activator] | 0.1 | -5
